# Env fusion inh = blocks HIV Env-driven cell-cell fusion. AID 651610. 360,000 tested, 1.1% active. HeLa-JRFL Env/CEM21 cell fusion, luciferase. inhibition, % at 12.3 µM;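 active = mean replicate inhibition score of at least 50 and every replicate individually at or above 50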;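 also: 0% = plate neutral controls and 100% = maraviroc near 300 nM; one replicate is shown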
# Yeast UUG start = modulators of start codon recognition fidelity in yeast; 350,000 tested, 0.13% active; activity score, % at 18.7 µM; AID 602363; S. cerevisiae UUG-firefly luciferase reporter, luminescence/redox ratio;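 active = replicate mean at a twofold rise or more, about +100% in these data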;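 also: firefly luciferase made from a UUG start codon reports start codon fidelity; reporter light over untreated wells divided by growth signal over untreated wells; some hits fall short of that in this replicate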
# Numbers without * were called inactive; [ ] = dose if it differs, or a comment.
entry	compound	Env fusion inh	Yeast UUG start
1	CC(C)C#Cc1ccc2c(c1)O[C@@H](CN(C)C(=O)c1ccccn1)[C@H](C)CN([C@H](C)CO)S2(=O)=O	9.6[16.7 µM]	33.0
2	COCc1cn(CC[C@@H]2CC[C@H](NC(=O)Nc3ccc(Cl)cc3)[C@H](CO)O2)nn1	2.5[16.7 µM]	-7.8
3	CNC[C@H]1Oc2ccc(NC(=O)C3CCCCC3)cc2CC(=O)N([C@@H](C)CO)C[C@H]1C	-18.4[16.7 µM]	0.0
4	COc1ccccc1C#Cc1ccc2c(c1)O[C@H](CN(C)C(C)=O)[C@@H](C)CN([C@@H](C)CO)S2(=O)=O	-16.8[16.7 µM]	22.7
5	Cc1ccc(S(=O)(=O)N(C)C[C@H]2Oc3cc(C4=CCCC4)ccc3S(=O)(=O)N([C@@H](C)CO)C[C@@H]2C)cc1	11.2[16.7 µM]	-18.1
6	CN(C)Cc1cn(CC[C@@H]2CC[C@H](NS(=O)(=O)c3ccccc3)[C@@H](CO)O2)nn1	-3.5[16.7 µM]	-5.9
7	CNC[C@H]1Oc2ncc(-c3ccc(C)cc3)cc2C(=O)N([C@@H](C)CO)C[C@H]1C	-47.8[16.7 µM]	0.6
8	COCC(=O)N(C)C[C@@H]1Oc2ncc(C#Cc3ccccc3)cc2C(=O)N([C@H](C)CO)C[C@@H]1C	3.9[16.7 µM]	0.4
9	O=C(C[C@@H]1C[C@@H]2c3cc(NS(=O)(=O)c4ccc(F)cc4)ccc3O[C@@H]2[C@H](CO)O1)NCc1ccc(Cl)cc1	23.0[16.7 µM]	-18.8
10	C[C@H]1CN([C@@H](C)CO)C(=O)Cc2cc(NC(=O)Nc3cccc4ccccc34)ccc2O[C@H]1CN(C)C(=O)Nc1ccc(F)cc1	-32.8[16.7 µM]	10.6

# Complete entries as entered above:
# Shown for CNC[C@H]1Oc2ccc(NC(=O)C3CCCCC3)cc2CC(=O)N([C@@H](C)CO)C[C@H]1C : Env fusion inh: -18.4[16.7 µM]; Yeast UUG start: 0.0
# Shown for COCc1cn(CC[C@@H]2CC[C@H](NC(=O)Nc3ccc(Cl)cc3)[C@H](CO)O2)nn1 : Env fusion inh: 2.5[16.7 µM]; Yeast UUG start: -7.8

# Following part.
entry	compound	Env fusion inh	Yeast UUG start
11	C[C@@H]1CCCCO[C@@H](CN(C)S(=O)(=O)c2ccc(F)cc2)[C@H](C)CN([C@H](C)CO)C(=O)c2cc(NS(=O)(=O)c3ccc(F)cc3)ccc2O1	-32.5[16.7 µM]	-4.9
12	C[C@@H]1CN([C@@H](C)CO)C(=O)c2cccc(NC(=O)Nc3ccc(F)cc3)c2O[C@H]1CN(C)C(=O)Nc1ccccc1	20.8[16.7 µM]	9.4
13	CCCC#Cc1cnc2c(c1)C(=O)N([C@H](C)CO)C[C@@H](C)[C@@H](CN(C)C(=O)C1CC1)O2	-9.1[16.7 µM]	-3.2
14	O=C(C[C@@H]1CC[C@H]2[C@@H](COC[C@@H](O)CN2C(=O)Nc2cc(Cl)cc(Cl)c2)O1)N1CCOCC1	8.4[16.7 µM]	1.8
15	O=C(OC[C@@H]1[C@H]2c3ccccc3O[C@]1(CO)N=C1Sc3ccc([N+](=O)[O-])cc3C(=O)N12)c1ccccc1	14.0[16.7 µM]	-2.8
16	CNC[C@H]1Oc2ccc(NC(=O)CCC(F)(F)F)cc2CC(=O)N([C@H](C)CO)C[C@H]1C	18.6[16.7 µM]	0.4
17	COCC(=O)N(C)C[C@@H]1Oc2ncc(-c3ccc(C#N)cc3)cc2C(=O)N([C@@H](C)CO)C[C@H]1C	-14.2[16.7 µM]	-1.7
18	C[C@@H]1CCCCO[C@H](CN(C)S(=O)(=O)c2ccccc2)[C@H](C)CN([C@H](C)CO)C(=O)c2cc(NS(C)(=O)=O)ccc2O1	4.6[16.7 µM]	9.8
19	C[C@@H]1CCCCO[C@H](CN(C)C(=O)c2ccncc2)[C@@H](C)CN([C@H](C)CO)C(=O)c2cc(NS(=O)(=O)c3ccccc3)ccc2O1	-29.9[16.7 µM]	3.3
20	C[C@@H]1CCCCO[C@H](CN(C)C(=O)CCCN(C)C)[C@H](C)CN([C@@H](C)CO)C(=O)c2cc(NS(C)(=O)=O)ccc2O1	-8.5[16.7 µM]	14.4

entry	compound	Env fusion inh	Yeast UUG start
21	C[C@H](CO)N1C[C@H](C)[C@H](CN(C)Cc2ccncc2)Oc2ncc(-c3ccccc3)cc2C1=O	-52.4[16.7 µM]	-19.9
22	C[C@H](CO)N1C[C@H](C)[C@H](CN(C)S(=O)(=O)c2cn(C)cn2)OCCCC[C@H](C)Oc2ccc(NC(=O)Nc3ccc(F)cc3)cc2C1=O	5.8[16.7 µM]	13.7
23	C/C=C/c1cnc2c(c1)C(=O)N([C@H](C)CO)C[C@H](C)[C@@H](CN(C)C(=O)Cc1cccnc1)O2	-6.6[16.7 µM]	-3.0
24	C[C@@H]1CCCCO[C@H](CN(C)C(=O)C2CCCCC2)[C@H](C)CN([C@@H](C)CO)C(=O)c2cc(NC(=O)Nc3ccccc3)ccc2O1	-8.4[16.7 µM]	-1.2
25	O=C(Cc1ccccn1)NCC[C@@H]1CC[C@H](NC(=O)CN2CCOCC2)[C@@H](CO)O1	-14.9[16.7 µM]	-3.8
26	C[C@@H]1CN([C@@H](C)CO)C(=O)c2cc(NC(=O)Nc3ccccc3)ccc2O[C@H]1CN(C)S(=O)(=O)c1ccc(F)cc1	3.7[16.7 µM]	-3.8
27	Cc1noc(C)c1S(=O)(=O)N(C)C[C@H]1OCCCC[C@@H](C)Oc2ccc(NS(=O)(=O)c3ccc(Cl)cc3)cc2C(=O)N([C@H](C)CO)C[C@@H]1C	-36.6[16.7 µM]	-3.5
28	COc1ccccc1-c1ccc([C@H]2[C@@H](CO)N(C(=O)C3CC3)[C@H]2C#N)cc1	-3.4[16.7 µM]	10.0
29	C[C@@H]1CN([C@H](C)CO)C(=O)c2cc(/C=C/c3ccccc3)cnc2O[C@@H]1CN(C)C(=O)c1ccncc1	-8.9[16.7 µM]	13.9
30	COc1ccc(S(=O)(=O)N(C)C[C@@H]2Oc3ccc(NC(=O)Cn4cnnn4)cc3C(=O)N([C@@H](C)CO)C[C@H]2C)cc1	30.1[16.7 µM]	19.9

entry	compound	Env fusion inh	Yeast UUG start
31	COC(=O)C[C@H]1CC[C@@H]2[C@H](COc3ccc(NC(=O)Nc4ccc(C#N)cc4)cc3C(=O)N2C)O1	21.3[16.7 µM]	-12.7
32	COc1cccc(-c2cnc3c(c2)C(=O)N([C@H](C)CO)C[C@H](C)[C@H](CN(C)C(=O)CC2CC2)O3)c1	-5.4[16.7 µM]	0.9
33	C/C=C/c1ccc2c(c1)O[C@@H](CN(C)C(=O)c1ccccc1F)[C@@H](C)CN([C@@H](C)CO)S2(=O)=O	27.8[16.7 µM]	6.1
34	C[C@@H]1CN([C@H](C)CO)C(=O)c2cc(/C=C/c3ccccc3)cnc2O[C@H]1CN(C)C(=O)Nc1ccccc1F	-26.1[16.7 µM]	-2.6
35	C[C@@H]1CN([C@@H](C)CO)C(=O)Cc2cc(N(C)C)ccc2O[C@H]1CN(C)C(=O)NC1CCCCC1	25.1[16.7 µM]	-7.3
36	Cc1ccc(S(=O)(=O)Nc2cccc3c2O[C@@H](CN(C)S(=O)(=O)c2ccc(C)cc2)[C@H](C)CN([C@@H](C)CO)C3=O)cc1	3.1[16.7 µM]	-8.7
37	CC(C)C#Cc1ccc2c(c1)O[C@@H](CN(C)C(=O)NC(C)C)[C@@H](C)CN([C@@H](C)CO)S2(=O)=O	-2.0[16.7 µM]	9.8
38	CC(C)NC(=O)N(C)C[C@H]1Oc2ncc(C#Cc3ccncc3)cc2C(=O)N([C@H](C)CO)C[C@@H]1C	5.1[16.7 µM]	2.9
39	Cc1noc(C)c1NC(=O)N(C)C[C@@H]1Oc2c(NS(C)(=O)=O)cccc2C(=O)N([C@H](C)CO)C[C@@H]1C	10.7[16.7 µM]	-5.7
40	COCC(=O)N[C@H]1CC[C@H](CC(=O)NCc2ccccc2OC)O[C@@H]1CO	-10.6[16.7 µM]	-18.3

entry	compound	Env fusion inh	Yeast UUG start
41	CCCC(=O)Nc1ccc2c(c1)OC[C@@H](C)N(C(=O)CC1CC1)C[C@@H](C)[C@H](OC)CN(C)C2=O	-4.7[16.7 µM]	1.0
42	CCNC(=O)Nc1ccc2c(c1)C(=O)N(C)[C@@H]1CC[C@@H](CC(=O)NCc3ccc(F)cc3)O[C@H]1CO2	1.1[16.7 µM]	-5.1
43	O=C(C[C@H]1CC[C@H]2[C@@H](COC[C@H](O)CN2S(=O)(=O)c2ccccc2)O1)NCCN1CCCCC1	6.1[16.7 µM]	-2.7
44	Cc1ccc(S(=O)(=O)Nc2ccc3c(c2)CC(=O)N([C@H](C)CO)C[C@H](C)[C@@H](CN(C)C(=O)Nc2ccc(C(F)(F)F)cc2)O3)cc1	-10.8[16.7 µM]	15.9
45	C[C@H](CO)N1C[C@H](C)[C@@H](CN(C)Cc2ccc(F)cc2)Oc2ncc(-c3ccc(F)cc3)cc2C1=O	2.8[16.7 µM]	-5.0
46	Cc1noc(C)c1S(=O)(=O)Nc1ccc2c(c1)C(=O)N([C@@H](C)CO)C[C@@H](C)[C@H](CN(C)S(=O)(=O)c1cccs1)OCCCC[C@@H](C)O2	-11.6[16.7 µM]	-2.6
47	C[C@@H]1CN([C@H](C)CO)C(=O)c2cccc(NC(=O)Nc3ccc(C(F)(F)F)cc3)c2O[C@H]1CN(C)Cc1ccc(Oc2ccccc2)cc1	34.0[16.7 µM]	-19.3
48	C[C@@H]1CCCCO[C@@H](CN(C)C(=O)Nc2cccc3ccccc23)[C@H](C)CN([C@@H](C)CO)C(=O)c2cc(NC(=O)c3ccncc3)ccc2O1	-9.3[16.7 µM]	0.7
49	O=C(C[C@H]1C=C[C@H](NC(=O)Nc2ccc(F)cc2)[C@@H](CO)O1)NCc1ccccn1	7.6[16.7 µM]	-15.4
50	C[C@@H]1CCCCO[C@@H](CN(C)Cc2ccc(Cl)c(Cl)c2)[C@@H](C)CN([C@@H](C)CO)C(=O)c2cc(NC(=O)Nc3cccc4ccccc34)ccc2O1	15.9[16.7 µM]	-3.6

entry	compound	Env fusion inh	Yeast UUG start
51	CCC(=O)N(C)C[C@H]1Oc2cc(Br)ccc2S(=O)(=O)N([C@H](C)CO)C[C@@H]1C	-14.7[16.7 µM]	9.1
52	Cc1noc(C)c1S(=O)(=O)Nc1ccc2c(c1)CC(=O)N([C@@H](C)CO)C[C@@H](C)[C@H](CN(C)S(=O)(=O)c1ccc(F)cc1)O2	11.9[16.7 µM]	2.6
53	O=C(Cc1ccncc1)NCC[C@H]1CC[C@@H](NC(=O)C2CCCCC2)[C@@H](CO)O1	-0.2[16.7 µM]	4.4
54	C[C@@H]1CN([C@@H](C)CO)C(=O)Cc2cc(NS(=O)(=O)c3cccs3)ccc2O[C@@H]1CN(C)CC1CCCCC1	-12.0[16.7 µM]	-4.3
55	CO[C@@H]1CN(C)C(=O)c2ccc(NC(C)=O)cc2OC[C@H](C)N(Cc2ccccn2)C[C@@H]1C	-1.8[16.7 µM]	-19.7
56	COc1ccc(S(=O)(=O)N(C)C[C@@H]2Oc3ccc(NC(=O)Nc4cccc5ccccc45)cc3C(=O)N([C@@H](C)CO)C[C@H]2C)cc1	6.0[16.7 µM]	-8.2
57	COc1ccc(S(=O)(=O)Nc2ccc3c(c2)C(=O)N([C@@H](C)CO)C[C@H](C)[C@H](CN(C)C(=O)c2ccncc2)OCCCC[C@@H](C)O3)cc1	-6.2[16.7 µM]	-6.4
58	Cc1noc(C)c1NC(=O)N(C)C[C@H]1Oc2ccc(NC(=O)NC3CCCCC3)cc2CC(=O)N([C@@H](C)CO)C[C@H]1C	-3.3[16.7 µM]	2.0
59	C[C@@H]1CCCCO[C@@H](CN(C)S(=O)(=O)c2cn(C)cn2)[C@@H](C)CN([C@@H](C)CO)C(=O)c2cc(NC(=O)Nc3ccc(C(F)(F)F)cc3)ccc2O1	-10.4[16.7 µM]	-2.8
60	Cc1ccc(S(=O)(=O)Nc2cccc3c2O[C@@H](CN(C)Cc2ccc4c(c2)OCO4)[C@H](C)CN([C@@H](C)CO)C3=O)cc1	-25.4[16.7 µM]	1.0

entry	compound	Env fusion inh	Yeast UUG start
61	Cc1ccc(S(=O)(=O)N(C)C[C@@H]2OCCCC[C@@H](C)Oc3ccc(NC(=O)CCC(F)(F)F)cc3C(=O)N([C@@H](C)CO)C[C@H]2C)cc1	-43.5[16.7 µM]	11.0
62	C[C@@H]1CN([C@H](C)CO)C(=O)c2cc(NC(=O)Nc3ccccc3)ccc2O[C@@H](C)CCCCO[C@@H]1CN(C)S(=O)(=O)c1cccs1	9.1[16.7 µM]	-5.4
63	C[C@H]1CN([C@@H](C)CO)S(=O)(=O)c2ccc(-c3ccc(F)cc3)cc2O[C@@H]1CN(C)S(C)(=O)=O	16.0[16.7 µM]	5.1
64	COc1cccc(-c2cn(CC[C@H]3CC[C@H](NC(=O)CN(C)C)[C@H](CO)O3)nn2)c1	11.2[16.7 µM]	11.0
65	C[C@H](CO)N1C[C@H](C)[C@@H](CN(C)S(=O)(=O)c2ccc(F)cc2)Oc2cc(C3=CCCCC3)ccc2S1(=O)=O	35.3[16.7 µM]	-17.2
66	C[C@@H]1CCCCO[C@@H](CN(C)Cc2ccc(C(F)(F)F)cc2)[C@@H](C)CN([C@@H](C)CO)C(=O)c2cc(NC(=O)c3ccccc3)ccc2O1	20.4[16.7 µM]	36.6
67	CCNC(=O)C[C@@H]1C=C[C@H](NC(=O)NC2CCCCC2)[C@H](CO)O1	-3.2[16.7 µM]	-19.4
68	C[C@H]1CN([C@@H](C)CO)C(=O)Cc2cc(NS(C)(=O)=O)ccc2O[C@@H]1CN(C)C(=O)Nc1ccc2c(c1)OCO2	-12.6[16.7 µM]	-9.8
69	O=C(C[C@H]1CC[C@@H](NC(=O)Nc2ccc3c(c2)OCO3)[C@@H](CO)O1)NCc1ccc(Cl)cc1	40.0[16.7 µM]	4.5

# Screens deposited in PubChem by Broad Institute.

# Only part of the results is shown. The share of hits here may be higher or lower than overall.
